# Assay outcomes (PubChem)
# Rango complex inh: inhibitors of Rango-importin beta complex formation; hit rate 0.031% among 340,000; Rango CFP/YFP FRET sensor + importin beta, 45 min; Potency, µM (highest dose often 92.2 µM), without a hit: at the top dose inhibition of complex formation; Q14974; active = rising FRET ratio curve, often small or poorly fitted; inconclusive = mostly compound fluorescence or quenching in the first reads; inactive = flat curves in all reads;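 further: potency means the concentration at half of the fitted maximal effect; 0% = DMSO wells and 100% = buffer wells lacking importin beta; nearly all actives have a fitted effect of over 15% in size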
#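 FRET biosensor Rango (snurportin 1 IBB between N-terminal EYFP and C-terminal Cerulean), 50 nM in PBS/1 mM DTT/0.02% Tween-20/0.1% BSA, preincubated 5 min RT with compound; 0.125 microM importin beta added, 45 min RT, CFP/YFP FRET ratio read.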
# Rango dissoc inh: inhibition of RanGTP-driven Rango-importin beta dissociation; Biochemical FRET Rango-importin beta, RanGTP-induced dissociation; Potency, µM (highest dose often 46.1 µM), for the others: at the top dose activity change, negative = inhibition; hit rate 0.071% among 340,000; active means falling FRET ratio curve, often poorly fitted, with flat reads before Ran was added; inconclusive means other falling curves, or compound fluorescence or quenching; inactive means flat or rising ratio curve;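 further: potency means the concentration at half of the fitted maximal effect; % of control where 0% means no effect; nearly all actives have a fitted effect of over 45% in size; -100% = wells without RanGTP and RCC1; the record marks most hits as doubtful in a second field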
#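 Quantitative HTS using a FRET biosensor: 0.1 uM Rango, 0.25 uM importin beta, 0.6 uM Ran, 2 mM GTP, 0.2 uM RCC1 final, PBS with DTT, Tween-20 and BSA. Post-read taken 45 min after Ran addition.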
# GLA inh pH 4.5: alpha-galactosidase A (human) inhibition, pH 4.5 | AID 1467 | P06280 | purified enzyme, 4-MU-alpha-Gal fluorescence, pH 4.5 | 230,000 tested, under 10 active | activity change, negative = inhibition, % at 105 µM; inconclusive = small, poorly fitted or top-dose-only inhibition, or a rising curve; inactive = flat fitted curve, though single readings scatter; no compound was filed as active;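 further: 0% = full activity with enzyme and -100% = basal without enzyme; dose as in the result columns while the protocol names 77 µM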
# Target sequence (P06280 whole entry, looked up): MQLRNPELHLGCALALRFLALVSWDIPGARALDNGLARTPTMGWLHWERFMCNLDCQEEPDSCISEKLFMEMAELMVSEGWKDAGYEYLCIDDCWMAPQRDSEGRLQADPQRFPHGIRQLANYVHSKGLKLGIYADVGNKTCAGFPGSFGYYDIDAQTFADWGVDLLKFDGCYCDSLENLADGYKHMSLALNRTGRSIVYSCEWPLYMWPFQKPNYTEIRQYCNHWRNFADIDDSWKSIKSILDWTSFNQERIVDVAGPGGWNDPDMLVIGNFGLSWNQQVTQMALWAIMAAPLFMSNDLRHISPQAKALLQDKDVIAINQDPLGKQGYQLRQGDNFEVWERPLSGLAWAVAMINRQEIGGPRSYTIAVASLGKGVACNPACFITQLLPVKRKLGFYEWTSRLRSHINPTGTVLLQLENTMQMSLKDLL
# miR-21 FLuc: miR-21 reporter, rising signal. HeLa miR-21 FLuc reporter, luciferase, 48 h. Potency, µM (top dose mostly 38.3 µM), inactives show top-dose reporter change, positive = more light. 340,000 tested, under 10 active. AID 2288; active = well fitted rising curve with a large enough effect; inconclusive = small, poorly fitted or top-dose-only effect; inactive = no such curve, though single readings can be large or run the other way;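 further: % of control where 0% means no effect; miR-21 action dims this reporter so a rising signal means less miR-21 action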
#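 HeLa cells stably expressing CMV-driven firefly luciferase with a downstream miR-21 binding sequence, endogenously expressing miR-21, were treated with titrations (up to about 40uM final) for 48 hours at 37 degree Celsius. Luciferase luminescence was read after lysis.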
# Active calls of the source: *; ? = inconclusive; . = no result given; & = joins results of further samples. A portion of the library, so the mix of outcomes need not match the whole.
# Each structure is followed by: Rango complex inh	Rango dissoc inh	GLA inh pH 4.5	miR-21 FLuc
> CC(C)CC(COCc1ccc([N+](=O)[O-])cc1)N1CCN(C(=O)c2ccc(C(F)(F)F)cc2)CCC1=O (configuration not stated)
→ -0.2%	5%	10	8%
> N#CC1=C(N)Oc2n[nH]c(-c3ccccc3)c2C1c1cccnc1 (configuration not stated)
→ 1.7%	15%	-22	-3%
> CC1(C)C(CC2OCC(CN3CCCCC3)O2)[C@H]2CC[C@@H]1C2 (some centres not stated)
→ 1.6%	0%	-4	-2%
> Cc1ccc(C(=O)NC(C(=O)OCc2cn3cc(Cl)ccc3n2)C(C)C)cc1 (configuration not stated)
→ 0.3%	-13%	.	.
> Cc1ccc(NC(=O)O/N=C/c2ccc(F)cc2)cc1
→ 1.4%	-6%	.	-54%
> COCCCNCCOCCOc1ccc(Cl)cc1Br
→ -0.7%	-8%	6	-1%
> CC(C)(C)c1cc(NCc2ccccn2)n2ncc(-c3ccccc3)c2n1
→ -5.4%	-17%	3	-21%
> Cc1ccc(C(=O)CCC(=O)NC2CCCC(C)C2C)cc1 (configuration not stated)
→ -3.3%	16%	.	-6%
> COC(=O)c1[nH]c2c(c1C)C(=O)CC(c1ccc(OC)c(OC)c1)C2 (configuration not stated)
→ -2.2%	11%	.	-3%
> O=C(CSc1nnc2ccccn12)Nc1ccccc1Cl
→ -1.1%	12%	.	.
> CC(=O)Nc1ccc(S(=O)(=O)NCCSCc2ccc(Cl)cc2Cl)cc1
→ -2.1%	-5%	-1	22%
> COc1ccc(CCNC(=O)Nc2cc(F)c(F)cc2Cl)cc1OC
→ -0.2%	-6%	.	6%
> CC(Nc1ccc(Br)cc1)C(=O)N/N=C/c1ccccc1OCc1ccccc1 (configuration not stated)
→ -3.9%	-2%	6	-3%
> CCn1ncc(Br)c1C(=O)NC(C)c1ccccc1 (configuration not stated)
→ 0.4%	9%	2	-7%
> COc1ccc(CCN(Cc2ccccn2)C(=S)Nc2cccc(C)c2)cc1OC
→ -2.4%	-10%	-9	-5%
> COc1ccc(CN2C(=O)CC(Cc3cc(C)cc(C)c3)C2=O)cc1OC (configuration not stated)
→ -4.1%	0%	-5	1%
> Cc1ccc2nc(SCC(=O)c3ccc(Cl)s3)[nH]c2c1
→ 0.1%	-8%	2	-33%
> Cc1c(NC(=O)C(C)OC(=O)CNC(=O)c2ccccc2)c(=O)n(-c2ccccc2)n1C (configuration not stated)
→ 3.6%	-11%	8	-6%
> CC1CCC(C(C)C)C(OC(=O)COC(=O)c2ccc(=O)[nH]c2)C1 (configuration not stated)
→ -0.9%	-6%	6	0%
> COC(=O)c1c(C)[nH]c(C(=O)COC(=O)CCNS(=O)(=O)c2cccc(C(F)(F)F)c2)c1C
→ 0.4%	5%	.	.
> CC12CC3CC(C)(C1)CC(C(O)CN1CCOCC1)(C3)C2 (configuration not stated)
→ 1.1%	13%	.	0%
> Cc1cccc(N(CC(=O)NC2CCCC2)C(=O)CCC(=O)Nc2cc(C)on2)c1
→ -1.5%	-3%	.	-3%
> Cc1cc(CNC(=O)c2ccc3oc(C(C)C)nc3c2)nn1C
→ -1.4%	-4%	.	-5%
> O=C(Cc1ccccc1)NC(NC(=S)Nc1cc(Cl)ccc1Cl)C(Cl)(Cl)Cl (configuration not stated)
→ 4.2%	-4%	0	0%
> COC(=O)[C@H](CC(C)C)NCc1cccc(CN[C@@H](CC(C)C)C(=O)OC)c1
→ ?	20%	.	6%
> CC1(C)CC(=O)C2=C(C1)OC(N)=C(C#N)C2Cc1ccccc1 (configuration not stated)
→ 2.1%	-1%	4	-5%
> Cn1c(=O)c2ncn(CC(=O)NC3CCCCCC3)c2n(C)c1=O
→ 0.7%	-21%	1	0%
> COc1cccc(N2C(=O)C3CCCN3C2c2ccc(N(C)C)cc2)c1 (configuration not stated)
→ -3.6%	1%	-12	-17%
> CCCNC(=O)c1c(N)n(-c2cccc(OC)c2)c2nc3ccccc3nc12
→ ?	?	?	-4%
> COC(=O)c1cc(C)ccc1OCc1ccc([N+](=O)[O-])cc1
→ -0.3%	4%	1	-11%
> Cc1ccc(SCc2nc(N)nc(Nc3ccccc3C)n2)cc1C
→ -1.1%	6%	-5	-24%
> CCOC(=S)N/C(=N\S(=O)(=O)c1ccccc1)c1ccccc1
→ 5.1%	2%	-3	-7%
> COc1ccc(C(=O)NCC(=O)N2CCCC(C)C2)cc1OC (configuration not stated)
→ 0.4%	-1%	9	1%
> COc1ccc(C2=C(N)c3ccccc3C2=O)cc1
→ -2.7%	-1%	-1	-57%
> O=C(CCc1ccccc1)Nc1ccccc1C(=O)NCc1ccco1
→ 5.3%	4%	2	-10%
> CCNC(=O)CSc1nc2ccccc2c(=O)n1CCCOC(C)C
→ 1.0%	-7%	-2	-4%
> CCOc1ccc(N2CC(O)=C(c3ccccc3)C2=N)cc1
→ -0.2%	9%	-7	1%
> C=C(C)c1cccc(C(C)(C)NC(=O)N2CCN(c3ccccn3)CC2)c1
→ 2.7%	-2%	-2	2%
> CCOc1ccc(Nc2nc(-c3sc(N)nc3C)cs2)cc1
→ 2.7%	-6%	.	-24%
> O=C(CSc1nc(=O)n(CCCN2CCOCC2)c2c1CCC2)Nc1ccc(F)cc1F
→ 1.4%	-11%	.	.

# An excerpt from above in order of their number in Rango complex inh, rising.
# Each structure is followed by: Rango complex inh	Rango dissoc inh	GLA inh pH 4.5	miR-21 FLuc
> COc1cccc(N2C(=O)C3CCCN3C2c2ccc(N(C)C)cc2)c1 (configuration not stated)
→ -3.6%	1%	-12	-17%
> COC(=O)c1cc(C)ccc1OCc1ccc([N+](=O)[O-])cc1
→ -0.3%	4%	1	-11%
> Cn1c(=O)c2ncn(CC(=O)NC3CCCCCC3)c2n(C)c1=O
→ 0.7%	-21%	1	0%
> O=C(CSc1nc(=O)n(CCCN2CCOCC2)c2c1CCC2)Nc1ccc(F)cc1F
→ 1.4%	-11%	.	.
> CCOC(=S)N/C(=N\S(=O)(=O)c1ccccc1)c1ccccc1
→ 5.1%	2%	-3	-7%

# Continuation:
# Each structure is followed by: Rango complex inh	Rango dissoc inh	GLA inh pH 4.5	miR-21 FLuc
> O=C1CCC(C(=O)N2CCC(O)CC2)CN1CCc1ccc(Cl)cc1 (configuration not stated)
→ -1.6%	-7%	.	-2%
> COc1ccc2sc(N(CCCN(C)C)C(=O)c3nc4ccccc4s3)nc2c1
→ 3.3%	7%	-2	-24%
> CC(C)(C)c1ccccc1NC(=O)Cn1cnc2cc([N+](=O)[O-])ccc2c1=O
→ -3.6%	12%	-11	1%
> CC(=O)NC1=NN(C(C)=O)C(C)(CS(=O)(=O)c2ccc(Cl)cc2)S1 (configuration not stated)
→ 3.4%	-7%	7	0%
> COc1ccc(N(CC(=O)Nc2cc(Cl)ccc2OC)S(=O)(=O)c2c(C)[nH]c(=O)[nH]c2=O)cc1
→ -1.2%	-1%	.	1%
> CCc1nnc(NS(=O)(=O)c2ccc(NC(=S)NC(=O)c3cccnc3)cc2)s1
→ 0.1%	2%	10	-11%
> C/C(=N/NC(=O)CN1CCN(S(=O)(=O)c2ccc(C)cc2)CC1)c1ccco1
→ -2.0%	9%	-28	-3%
> Cc1ccc(S(=O)(=O)N2CCN(C(=O)Cc3ccc4c(c3)OCCO4)CC2)cc1C
→ -1.8%	7%	-20	-8%
> Cc1cccc2sc(NC(=O)CN3C(=O)C4CC=CCC4C3=O)nc12 (configuration not stated)
→ 1.8%	0%	1	-4%
> O=c1cc2c(n[nH]1)CCCC2
→ -1.9%	-14%	0	-2%
> CC1=C(C(=O)OCc2ccc3c(c2)OCO3)C(c2cccc([N+](=O)[O-])c2)NC(=O)N1 (configuration not stated)
→ -2.2%	0%	-3	16%
> Cc1cc(F)ccc1S(=O)(=O)Nc1ccccc1C(=O)Nc1ccc2[nH]c(=O)[nH]c2c1
→ 1.2%	1%	4	-13%
> Cc1cccc(CNC(=O)c2cc(S(=O)(=O)N3CCOCC3)cn2C)c1
→ 3.0%	2%	.	-1%
> COc1ccc(CCNC(=S)NCc2cccs2)cc1OC
→ -4.8%	0%	8	-11%
> C/C(=N/Nc1ccc([N+](=O)[O-])cc1)c1ccc(C)cc1C
→ ?	?	-11	4%
> OC1(c2ccccc2)Cc2cccc[n+]2C1c1ccccc1 (configuration not stated)
→ ?	-19%	-1	2%
> CCCc1ccc(OCCNC(=O)c2ccco2)cc1
→ -0.1%	-3%	.	-47%
> CCCC(=O)Nn1cnc2c(c1=O)C1(CCCC1)Cc1ccccc1-2
→ 0.0%	2%	-4	-4%
> COC(=O)c1ccc(CNC(=O)N2CCN(S(=O)(=O)c3ccc(C)cc3)CC2)cc1
→ -3.5%	-6%	.	0%
> Cc1ccc(S(=O)(=O)N2CCOCC2)cc1NC(=O)C1CC(=O)N(c2ccc3c(c2)OCCO3)C1 (configuration not stated)
→ -1.7%	?	.	.
> Cc1ccc(S(=O)(=O)Nc2ccc(C(=O)NCc3ccncc3)cc2)cc1
→ 0.3%	4%	.	-2%
> O=C(Nc1cccc(S(=O)(=O)c2cccc(NC(=O)c3ccco3)c2)c1)c1ccco1
→ ?	7%	6	25%
> CCCOC(=O)CSc1nc(N)c(C#N)c(-c2ccco2)c1C#N
→ ?	-13%	.	.
> COc1ccc(NC(=O)CSc2nnc(-c3ccco3)n2C)cc1
→ 0.9%	17%	2	-5%
> O=C(Nc1ccccc1Cl)c1ccc(Cl)cc1Cl
→ 1.2%	7%	6	-53%
> COc1ccc2c(c1)C1(Nc3ccccc3-c3nc4ccccc4n31)C(=O)N2C (configuration not stated)
→ -0.1%	-20%	-4	-2%
> CSc1nnc(-c2cnccn2)n1Cc1ccccc1
→ -0.6%	-2%	-10	-7%
> CC(C)CCNC(=O)C1CCN(c2nnc(-n3cccc3)s2)CC1
→ -0.6%	-13%	4	-25%
> O=C(CSCc1ccc(Br)cc1)N=Nc1c(O)[nH]c2ccccc12
→ 0.3%	19%	-4	-11%
> CCCCOc1ccc(N(CC(=O)NCC2CCCO2)C(=O)CCC(=O)Nc2cc(C)ccn2)cc1 (configuration not stated)
→ -2.8%	-3%	0	-5%
> COC(=O)[C@@H]1C[C@@]2(O)[C@H](O)[C@H](O)[C@H](O)C[C@H]2N1Cc1ccc(C(C)(C)C)cc1
→ -2.5%	-4%	8&1	-5%
> NC(=O)c1nsc(C(=O)N(c2ccccc2)C(C(=O)NC2CCCC2)c2ccncc2)c1N (configuration not stated)
→ 5.0%	5%	.	-6%
> Cn1c(CNc2ccc(F)cc2)nc2ccccc21
→ 3.8%	-4%	.	-59%
> COC(=O)C1CCN(CC(N)=O)CC1
→ -0.7%	-8%	0	0%
> CCCOc1ccc(N2C(=O)CC(NCC#N)C2=O)cc1 (configuration not stated)
→ -2.0%	1%	.	2%
> CCc1ccc(-n2c(O)c(C=NCCN(CC)CC)c(=O)[nH]c2=O)cc1
→ 0.6%	7%	9	1%
> COc1ccccc1/C=N/NC(=O)c1cc2c(ccc3ccccc32)o1
→ ?	-5%	.	-2%
> O=C1CCc2cc(S(=O)(=O)N3CCC(C(=O)NC4CCCc5ccccc54)CC3)ccc2N1 (configuration not stated)
→ -5.8%	-1%	-6	-1%
> CCc1ccccc1NC(=O)N1CCCC(CCC(=O)N(C)CCc2ccccn2)C1 (configuration not stated)
→ 2.7%	36%	7	1%
> O=C(O)CCNC(=O)CCCn1nnc2ccccc2c1=O
→ -0.4%	0%	2	-2%
> CCOC(=O)c1cc2nc(OCC)nc(OCC)c2[nH]1
→ -1.9%	-3%	.	.
> CN(C)c1nc(C(=O)Nc2ccccc2)nc(N(C)C)n1
→ 0.3%	6%	-2	-2%
> O=C(Nc1ccncc1)c1ccc(NS(=O)(=O)c2cccc(F)c2)cc1
→ -4.6%	8%	-8	21%
> CC(C)CCNC(=O)C1CCN(Cc2cccc(OCc3ccccc3)c2)CC1
→ -3.4%	22%	.	3%
> O=C(Nc1cc2c(cc1Cl)OCCCO2)c1ccc(F)cc1
→ -4.1%	13%	2	-90%
> CC(=O)c1ccc(N2CCN(C(=O)c3c(-c4ccccc4Cl)noc3C)CC2)cc1
→ 0.8%	5%	.	1%
> Cc1csc2c(N3CCN(C(=O)Nc4ccc(Cl)c(Cl)c4)CC3)ncnc12
→ -0.2%	-3%	-2	-5%
> CCCCCCC(C)n1cc(C(C)=O)c(=O)[nH]c1=O (configuration not stated)
→ -0.7%	-3%	6	-2%
